HSD17B inh = HSD17B dehydrogenase inhibition; Q99714; recombinant HSD17B10, NADH fluorescence kinetic; many of its hits are not listed in these tables; Potency, µM (series often up to 57.1 µM), for the others: at the top dose activity change, negative = inhibition, usual class: inhibitors; actives 7.6% (n = 75,000); AID 893; active means well fitted inhibition curve with a large enough effect; inconclusive means small, poorly fitted or top-dose-only effect; inactive means no such curve, though single readings can be large or run the other way;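 further: the protocol describes HADH2 (HSD17B10) and not the HSD17B4 of the title; nearly all actives have a fitted effect of over 70% in size; most hits overshoot -100% by far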
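Enzyme plus compound, 15 min room temperature; substrate mix added (NAD+ 1 mM, beta-hydroxybutyryl-CoA 90 uM final); plates read kinetically for NADH fluorescence. HADH2 was His-tagged, E. coli-derived, 20 nM.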
The depositor's hits bear a star; ? = inconclusive; [ ] = another dose, or the depositor's remark. On the % scale 0 is the no-effect control and ±100 the full control effect; potency means the concentration at half of the fitted maximal effect.

Start of the data: the first two compounds (preview)
SMILES	HSD17B inh
CC(c1ccccc1)C1C(C#N)=C(N)SC(N)=C1C#N (stereo not drawn)	-4.2%
CC(C)(C)Nc1cccccc1=O	-0.5%

All compounds of this part, from the start:
SMILES	HSD17B inh
CC(c1ccccc1)C1C(C#N)=C(N)SC(N)=C1C#N (stereo not drawn)	-4.2%
CC(C)(C)Nc1cccccc1=O	-0.5%
CCOC(=O)C(CC)(CCC(=O)O)c1csc(N)n1 (stereo not drawn)	-6.6%
O=C(C1CCC(CNS(=O)(=O)c2cccc3cccnc23)CC1)N1CCCC1 (stereo not drawn)	2.8%
COC1=Cc2c(ccc3ccc(=O)oc23)OC1(C)C	2.5%
CC(=O)Nc1ccc(S(=O)(=O)NCC2CCC(C(=O)NCCC(C)C)CC2)cc1 (stereo not drawn)	-3.2%
CCOc1ccc(N=C2SC(C(=O)O)CC(=O)N2C)cc1 (stereo not drawn)	-5.6%
CCc1ccc(OC(=O)c2ccn(CC)n2)cc1	1.6%
COc1ccc(N2CCN(C(=O)CSc3nc4cc(OC)c(OC)cc4cc3C#N)CC2)cc1	-13.2%
O=C(Nc1ccccn1)C1CCN(S(=O)(=O)c2cccs2)CC1	1.7%
CC(=O)c1coc2ccc(OCCN3CCCCC3)cc12	19.4%
COc1ccc(OCCNC(=O)c2ccccc2OCC(=O)N2CCCCC2)cc1	7.3%
CCC(=NCCc1ccccc1)C1=C(O)CCC1=O	1.3%
CCOC(=O)CCc1c(C)c2c(C)nn(-c3ccccc3)c2[nH]c1=O	-23.6%
O=C1CCC(=O)N1OCCOc1ccc2c(c1)CCC2	10.8%
COc1cc(NC(=O)c2cc(-n3cnnc3)ccc2Cl)cc(OC)c1	0.5%
O=C(CS(=O)CC(=O)N(CC(=O)NC1CCCC1)C1CCCCC1)Nc1ccc(F)cc1 (stereo not drawn)	5.4%
CCOC(=O)c1ccc2nc3c(cc2c1)CCS3	25.1µM*
CCCCOc1ccc(NC(=O)CSCC(=O)OCC)cc1	1.9%
O=C(NCc1ccc2c(c1)OCO2)c1ccc2snnc2c1	-20.9%

Laid out differently: results already given
molecule: O=C(CS(=O)CC(=O)N(CC(=O)NC1CCCC1)C1CCCCC1)Nc1ccc(F)cc1 (stereo not drawn)
  HSD17B inh = 5.4%

molecule: CCOC(=O)c1ccc2nc3c(cc2c1)CCS3
  HSD17B inh = 25.1µM*

(next part)
SMILES	HSD17B inh
CC(C)n1c(Nn2cnnc2)nc2ccccc21	-0.7%
Cc1cc(C#N)c(C)n1-c1cc(C(F)(F)F)ccc1N1CCOCC1	-8.3%
S=c1[nH]nc(-c2ccc3ccccc3n2)o1	-18.4%
COc1ccccc1N1CCN(C(=O)c2ccc3c(=O)n(Cc4ccco4)c(=S)[nH]c3c2)CC1	-29.4%
CCOc1ccc(-c2nc(CSCC(=O)N3CCN(c4cccc(OC)c4)CC3)c(C)o2)cc1	-11.4%
C=CCNC(=O)c1ccc2nccnc2c1	4.7%
NCCC1([N+](=O)[O-])CCNCC1	0.9%[11.4 µM]
OCCN(CO)CO	5.2%[11.4 µM]
O=C(O)C[C@H](Cc1ccccc1)C(=O)O	-0.5%[11.4 µM]
CCOC(=O)c1nnn(-c2nc(OC)nc(N(C)C)n2)c1-c1ccccc1	7.1%
CC(C)CC(OC(=O)c1cccs1)C(=O)NCc1ccco1 (stereo not drawn)	-15.4%
Nn1c(-c2cccc(Br)c2)n[nH]c1=S	-13.3%
CCOc1ccc(NC(=O)CSc2nnc(C3CC3)n2N)cc1	-0.6%
Cn1c2ccccc2c2ncn(CCC3=CCCCC3)c(=O)c21	31.6µM*
COc1ccc(-c2nnc(N(C)C(=O)c3cccnc3)s2)cc1	53.8%[activator]
COc1ccc(O[C@H]2C=C[C@@H](c3ccccc3)O[C@@H]2CO/N=C(\C)CCN2CCc3nc(-c4ccccc4)c(-c4ccccc4)cc3C2)cc1	2.2%[11.4 µM]
c1ccc(NN(Cc2cnccn2)c2ccccc2)cc1	2.6%[11.4 µM]
O=C1CCCN1CN(C(=O)c1ccc2c(c1)OCO2)c1cccc(Cl)c1	11.5%
Cc1c(C(=O)N2CCC(C(N)=O)CC2)sc(N)c1C#N	-7.2%
CC(NC(=O)OC1CCCCC1)N1C(=O)C2C3C=CC(C3)C2C1=O (stereo not drawn)	-1.3%
COc1ccc(S(=O)(=O)N2CCCN(Cc3cccc(F)c3)CC2)cc1	4.5%
CN(C)S(=O)(=O)c1ccc(C(=O)Nc2ccnn2C2CCCCC2)cc1	-1.5%
CCOC(=O)C1CCCN(C(=O)COC(=O)C2=COCCO2)C1 (stereo not drawn)	8.0%
Cc1noc(C(=O)Nc2ccccc2C(F)(F)F)c1Cl	5.7%
COCCNC(=O)c1sc2ncn(CC(=O)N3CCCCC3)c(=O)c2c1C	1.9%
C=CCn1c(COc2cccc3ccc(C)nc23)nnc1SCC(=O)OC	1.8%
COc1ccc(OCCN2C(=O)NC(C)(c3ccc(C)cc3)C2=O)cc1 (stereo not drawn)	-2.0%
N#Cc1cccc(-c2ccc3ncnc(NCc4cccnc4)c3c2)c1	31.6µM*
CC(NC(=O)C(NC(=O)C1CCCN1C(=O)OC(C)(C)C)C(C)C)C(N)=O (stereo not drawn)	4.0%
COC(=O)[C@@]1(Cc2ccc(OC)cc2)[C@H]2c3cc(C(=O)N4CCCC4)n(Cc4nc5ccccc5[nH]4)c3C[C@H]2CN1C(=O)c1ccccc1	?

3 compounds drawn at random from those above:
SMILES	HSD17B inh
CCOC(=O)c1ccc2nc3c(cc2c1)CCS3	25.1µM*
CC(C)(C)Nc1cccccc1=O	-0.5%
O=C(Nc1ccccn1)C1CCN(S(=O)(=O)c2cccs2)CC1	1.7%

Further entries:
SMILES	HSD17B inh
COc1ccc(O[C@H]2C=C[C@@H](c3ccccc3)O[C@H]2COC(=O)CC/C(C)=N\O[C@@H](C)CN2CCCc3nc(C)c(C)cc32)cc1	-8.1%[11.4 µM]
CN(C)CCCNCCCNC(=O)/C(=N\O)c1ccccn1	126.9%[activator]
Cc1onc(-c2c(Cl)cccc2Cl)c1C(=O)NC(C)(C)CO	1.4%
Cc1cc(C)c(-c2cc(NC(=O)CSc3nncn3C)n(-c3ccccc3)n2)cc1C	-3.3%
CSc1nnc2c3ccccc3n(Cc3ccccc3)c2n1	-4.5%
COc1ccccc1-c1ccc2ncnc(N3CCOCC3)c2c1	-2.9%
CCCC(=O)Nc1ccc(Cl)c(NC(=O)c2cccnc2)c1	-2.0%
Cc1ccc(C)n1CCN1CCN(CC(=O)Nc2ccc(S(N)(=O)=O)cc2)CC1	5.1%
O=C1C=CC2=C3c4cc(O)c(O)cc4CC3(O)COC2=C1O (stereo not drawn)	2.51µM*
COc1cc(OC)cc(-c2nc(-c3ccccc3)no2)c1	-11.0%
CCc1cc2c(=O)c(-c3nc4ccccc4n3C)c(COCC(=O)O)oc2cc1O	-6.1%
Cc1[nH]nc(-c2ccc(O)cc2O)c1-c1ccc(Cl)cc1	-13.5%
Cc1cccc(OCCCC(=O)Nc2ccc(N3CCOCC3)cc2)c1	3.0%
Cc1cc(N2CC(=O)N(CCc3ccccc3)C(=O)C2)n2ncnc2n1	4.2%
OC(COc1ccccc1)CN1C2=NCCCN2c2ccccc21 (stereo not drawn)	-1.8%
Cc1cc(NC(=O)COC(=O)c2ccc(F)c(S(=O)(=O)N3CCOCC3)c2)no1	0.6%
CN(C)CCCNC(=O)c1ccc(Cc2nc3ccccc3[nH]2)cc1	6.5%
CN(Cc1ccco1)c1ccnc(-c2cccc(C#N)c2)n1	-10.1%
CC1(C)CC2/C(CO)=C/C=C/[C@](C)(O)CC[C@]21O (stereo partly drawn)	-3.0%
CC(C)c1ccc(N(CC(=O)O)S(=O)(=O)c2cccnc2)cc1	-2.9%

Individual results from above:
HSD17B inh with Cc1cc(NC(=O)COC(=O)c2ccc(F)c(S(=O)(=O)N3CCOCC3)c2)no1 is entered as 0.6%
HSD17B inh with CCc1cc2c(=O)c(-c3nc4ccccc4n3C)c(COCC(=O)O)oc2cc1O is entered as -6.1%

The list continues.
SMILES	HSD17B inh
CSc1ccc(C2C(C#N)=C(N)Oc3cc4c(cc32)OCO4)cc1 (stereo not drawn)	-1.4%
Cc1ccc(-n2nnc3ccccc3c2=O)cc1C	-7.8%
O=C(Nc1ccccc1)Nc1ccccn1	1.0%
O=C(NCCCN1CCCCC1)C1CCC(=O)N1CCc1ccccc1 (stereo not drawn)	8.8%
COc1ccc(Oc2ncc3nc(-c4ccc(F)cc4)c(=O)n(C[C@H]4CCCO4)c3n2)cc1	?
C=CCc1ccccc1OCCn1ccnc1	1.9%
COC(=O)c1ccccc1NC(=O)C1CC(=O)N(c2ccccc2)C1 (stereo not drawn)	-3.4%
Cn1c(=O)c2c(nc(NCc3ccc4c(c3)OCO4)n2C)n(C)c1=O	-5.0%
CCCCNC(=O)c1nc2ncc(Br)cn2n1	11.0%
CCOC(=O)Cn1nnc(-c2ccc(OCC(C)C)cc2)n1	-3.9%
Nc1nc(SC/C=C\c2ccccc2)c2[nH]cnc2n1	4.1%[11.4 µM]
COc1ccc(C2=Nn3c(nnc3-c3cccnc3)SC2)cc1	0.4%
C=CCn1c(SCC(=O)O)nnc1-c1ccc(C(C)(C)C)cc1	-9.7%
C=CCn1c(NCCO)nc2sc3c(c2c1=O)CCC3	-2.9%
COC(=O)[C@@H]1C[C@H]2CC[C@H](O)C[C@H]2N1Cc1c(F)cccc1Cl	-5.8%
COc1ccc2c(c1)CCc1c(C(=O)NCCc3ccc(OC)c(OC)c3)noc1-2	7.8%
CCC[C@@H]1C[C@@]1(CCC)C(NC(=O)c1ccc(-c2ccccc2)cc1)c1cccc(Cl)c1 (stereo partly drawn)	-6.4%
Cc1cnc(CNc2ccnc(-c3ccc(C(=O)N(C)C)cc3)n2)cn1	-4.5%
COC(=O)NC(CC(C)=O)c1cccs1 (stereo not drawn)	7.4%[11.4 µM]
C/C1=C/CC(C)(C)/C=C/C/C(C)=C/CC1	1.4%
COc1ccc(Cn2nnnc2C(c2cccs2)N2CCOCC2)cc1 (stereo not drawn)	4.0%
COc1ccccc1CNc1ccnc(-c2cccnc2)n1	-10.9%
Cc1nn2c(N3CCN(c4ccccn4)CC3)cc(C(C)C)nc2c1-c1ccccc1	249.2%[activator]
CC(C)COC(=O)n1c(SCC(=O)N(C)C)nc2ccccc21	10.4%
C[C@@H]1NC(=O)C/C=C\[C@@H](C)[C@@H]2C=C[C@H](O)[C@@H](COC(=O)[C@H](C)NC(=O)C/C=C\[C@@H](C)[C@@H]3C=C[C@H](O)[C@@H](COC1=O)O3)O2	2.0%[11.4 µM]
O=C(CCN1C(=O)C2C3C=CC(C3)C2C1=O)NCCc1ccccc1 (stereo not drawn)	2.0%
CC(C)c1ccc(/C=C2\C=C(c3ccc4ccccc4c3)OC2=O)cc1	-5.4%[11.4 µM]
CC(CNC(=O)C1CCCCC1)NC(=O)C1CCCCC1 (stereo not drawn)	6.8%
CN1C(=O)C2(C(C#N)=C(N)Oc3n[nH]c(-c4ccc(Cl)cc4)c32)c2ccccc21 (stereo not drawn)	5.3%
COc1ccc(-c2nc3n(n2)C(c2ccccc2Cl)C(C(N)=O)=C(C)N3)cc1 (stereo not drawn)	0.5%
Cc1nn(-c2ccccn2)c2c1-c1nc(N)ncc1CC2	31.6µM*
O=C(Nc1cn(-c2ccccc2)nc1-c1cccs1)c1ccco1	-8.9%
CN(C)CCCNC(=O)CC(c1ccccc1)c1ccccc1O (stereo not drawn)	4.0%
COC(=O)NCc1ccc(Cl)c(Cl)c1	4.5%
COc1ccc(NC(=O)c2ccccc2NS(C)(=O)=O)cc1OC	13.2%
c1ccc2c(c1)[nH]c1c(NCC3CCCO3)ncnc12 (stereo not drawn)	31.6µM*
C=C(C)C(O)/C=C/c1ccc(C)cc1 (stereo not drawn)	8.0%[11.4 µM]
COc1cc2cc(CN(CCO)S(=O)(=O)c3ccccc3Cl)c(=O)[nH]c2cc1OC	25.1µM*
CCOC(=O)CSc1nnc(Cn2nnc(-c3ccccc3)n2)n1C	1.5%
COc1ccc(NC(=O)N(Cc2ccc(C)cc2)Cc2ccccn2)c(OC)c1	3.7%
COc1cc2c(cc1NCc1ccccn1)oc1ccccc12	12.6µM*
Cc1nnc(SCc2ccc(Cl)cc2)n1CC1CCCO1 (stereo not drawn)	4.8%
Oc1ccc(CN2CCCCC2)nc1-c1ccccc1	31.6µM*
Cc1c(C(=O)CN2CCOCC2)[nH]c2ccccc12	-6.8%
N#C/C(=C(/O)CN1CCOCC1)c1nc2ccccc2s1	2.6%
CC(C)CC(NC(=O)OCC1c2ccccc2-c2ccccc21)C(=O)O (stereo not drawn)	8.6%
COc1ccc(NC(=O)C2CCCN2c2ccc(OC)c(OC)c2)cc1OC (stereo not drawn)	6.5%
CCCS(=O)(=O)c1c(S(=O)(=O)CCC)c2c3ccccc3ccn2c1C(N)=O	-9.7%
CC(C)OC(=O)CN1C(=O)C(C)(C)Oc2ccc(C(=O)NC3CC3)cc21	-7.6%
O=C(CSc1nc(O)c(Cc2ccccc2F)c(=O)[nH]1)N1CCCCCC1	-6.2%

The results go on:
SMILES	HSD17B inh
COCC(=O)N(Cc1ccc(OC)cc1)Cc1nc2ccccc2c(=O)[nH]1	-14.2%
O=C(CSc1nc(N2CCCCC2)nc(N2CCCCC2)n1)c1ccccc1	4.2%
COc1ccc(C2C(C(=O)c3cccs3)=C(O)C(=O)N2c2nncs2)cc1 (stereo not drawn)	-3.5%
CSc1nsc(SC)c1NC(=O)OCc1ccccc1	-14.0%
CCOC(=O)C1=C(c2ccccc2)OC(N)=C(C#N)C1C(C)C (stereo not drawn)	-0.7%
O=C(Nc1nncs1)c1ccc(N2C(=O)C3C4C=CC(C4)C3C2=O)cc1 (stereo not drawn)	-5.0%
c1ccc(CSc2nnc(-c3ccncc3)o2)cc1	-8.5%
CSC1=C(C#N)C(c2cccc(Br)c2)CC(=O)N1 (stereo not drawn)	-8.6%

Screens (PubChem BioAssay)

Not all compounds are listed; the hit share may differ from the screen's.
